Assay outcomes as filed in PubChem.
TAR Tat displ: HIV-1 TAR-Tat binding disruption. HIV-1 TAR RNA, Tat peptide displacement FRET; active compounds read high. AID 1259389. z-score (no concentration beside the values). 100,000 tested, 0.6% active;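 note: score is relative to mean and SD of negative controls; some compounds called inactive have numbers as strong as hits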
CDC25B CDK2 inh: human CDC25B-CDK2/CyclinA binding inhibition; HTRF CDC25B-CDK2/CyclinA binding, anti-His/anti-Flag; active compounds read high; z-score (no concentration beside the values); 94,000 tested, 0.72% active; AID 1259370;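 note: score is relative to mean and SD of negative controls; strong numbers were not always called active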
* marks the source's active call; other numbers are inactive results; · = no result given.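 Rule for the calls: active = z-score from 3 up in half or more of its runs; inactive = the rest.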

cpd	smiles	TAR Tat displ	CDC25B CDK2 inh
1	O=C(Nc1ccc2c(c1)CCN2S(=O)(=O)c1ccccc1)NC1CCCC1	2.07	·
2	Cc1cc(NC(=O)Cn2nc(C(=O)Nc3ccccc3)ccc2=O)no1	0.78	·
3	CCOC(=O)C1=C(C)NC2=C(C(=O)CCC2)C1c1ccc(OC(C)=O)c(OC)c1 (stereo unspecified)	-0.78	1.6
4	COC(=O)c1sc2cccc(F)c2c1S(=O)(=O)Nc1ccccc1	-0.48	·
5	Nc1c(C(=O)Nc2cccc(Cl)c2)sc2nc(-c3ccncc3)ccc12	-6.86	1.71
6	O=C(CCCN1CCSc2ccccc21)Nc1nc2ccccc2s1	-0.18	·
7	COc1cccc(C(=O)Oc2cc3c4c(c2)C(C)=CC(C)(C)N4C(=O)C3=O)c1	1.33	-1.51
8	Cc1nn2c(=O)cc(CSCc3ccco3)nc2s1	0.87	-1.78

A draw from above in order of molar mass, ascending:
cpd	smiles	TAR Tat displ	CDC25B CDK2 inh
8	Cc1nn2c(=O)cc(CSCc3ccco3)nc2s1	0.87	-1.78
2	Cc1cc(NC(=O)Cn2nc(C(=O)Nc3ccccc3)ccc2=O)no1	0.78	·
4	COC(=O)c1sc2cccc(F)c2c1S(=O)(=O)Nc1ccccc1	-0.48	·
6	O=C(CCCN1CCSc2ccccc21)Nc1nc2ccccc2s1	-0.18	·
7	COc1cccc(C(=O)Oc2cc3c4c(c2)C(C)=CC(C)(C)N4C(=O)C3=O)c1	1.33	-1.51
5	Nc1c(C(=O)Nc2cccc(Cl)c2)sc2nc(-c3ccncc3)ccc12	-6.86	1.71
1	O=C(Nc1ccc2c(c1)CCN2S(=O)(=O)c1ccccc1)NC1CCCC1	2.07	·

(listing goes on)
cpd	smiles	TAR Tat displ	CDC25B CDK2 inh
9	CC(N[C@H]1CS(=O)(=O)C[C@@H]1S(=O)(=O)c1ccc(F)cc1)c1ccccc1 (stereo partly specified)	0.62	-1.3
10	CC(C)(C#CC(O)(c1ccccc1)c1ccccc1)N1CCCCC1	0.62	-1.33
11	C=CCNC(=O)c1nn(-c2ccccc2F)nc1CO	1.99	-0.84
12	Cc1ccc(-n2ncc3c(NCCO)ncnc32)cc1Cl	1.61	·
13	COC(=O)COc1ccc2oc(C)c(C(=O)OC)c2c1	·	-2.57
14	CC1CCCCC1NC(=O)Cc1ccc(NC2=NC3CS(=O)(=O)CC3S2)cc1 (stereo unspecified)	0.66	-2.08
15	Cc1ccc(/C(O)=C2\C(=O)C(=O)N(CCCN3CCOCC3)C2c2ccc(C)cc2)cc1 (stereo unspecified)	0.13	1.14
16	CCOc1cc(/C=C2/SC(=S)N(C)C2=O)cc(Cl)c1OCCOc1ccc(Br)cc1	·	-1.61
17	CCNc1cc(N2CCCC(C(=O)OCC)C2)c2noc3c2c1C(=O)c1ccccc1-3 (stereo unspecified)	1.78	-2.01
18	COc1ccc(NC2=NS(=O)(=O)C(c3ccc(F)cc3)=C2C)cc1OC	2.42	·
19	CC(C)C(NC(=O)c1ccco1)c1nc(-c2ccc3c(c2)ncn3C)no1 (stereo unspecified)	-2.33	·
20	O=c1[nH]c(=O)n(Cc2ccccc2)c(O)c1C1=Nc2ccccc2SC(c2cccc(O)c2)C1 (stereo unspecified)	0.07	-1.96
21	CCOC(=O)c1nc(Nc2ccc(S(=O)(=O)Nc3ncccn3)cc2)c2ccccc2n1	·	1.66
22	O=C(O)c1cnn2c(C(F)F)cc(-c3ccccc3)nc12	2.32	-1.64
23	CCOC(=O)c1nc2nc(C)cc(=O)n2[nH]1	·	0.17
24	CCn1c(C2CC(=O)N(c3cc(C)cc(C)c3)C2)nc2ccccc21 (stereo unspecified)	-0.74	-2.28

Full records as entered above. Order of screens: TAR Tat displ, CDC25B CDK2 inh
`COc1ccc(NC2=NS(=O)(=O)C(c3ccc(F)cc3)=C2C)cc1OC` is entered as 2.42, ·
`CCn1c(C2CC(=O)N(c3cc(C)cc(C)c3)C2)nc2ccccc21` (stereo unspecified) is entered as -0.74, -2.28

The list goes on.
cpd	smiles	TAR Tat displ	CDC25B CDK2 inh
25	COc1cnc(NS(=O)(=O)c2ccc(N)cc2)nc1	7.95	·
26	O=C(c1ccc2nc3cc(Cl)ccc3c(=O)n2c1)N1CCOCC1	·	0.28
27	CCOc1ccc(S(=O)(=O)N2CCN(c3ccc(F)cc3)CC2)cc1	·	-0.67
28	Cc1ccc(/C(O)=C2\C(=O)C(=O)N(CCCn3ccnc3)C2c2ccncc2)cc1 (stereo unspecified)	-0.48	-0.82
29	CSc1cccc(N2C(=O)Nc3ccccc3S2(=O)=O)c1	0.81	·
30	CCn1nnc(NCc2ccc3c(c2)n(C)c(=O)n3C)n1	1.04	·
31	COc1ccc(Cl)cc1NC(=O)CCS(=O)(=O)c1ccc2c(c1)oc(=O)n2C	0.61	·
32	CCC(CC)C(=O)Nc1ccc(OCc2cc(=O)n3ccc(C)cc3n2)cc1	1.09	·
33	COc1cc2c(cc1OC)C(C)N(C(=O)c1cc(S(=O)(=O)N3CCCC3)cn1C)CC2 (stereo unspecified)	0.78	·
34	COc1ccc(OCc2nn3c(C(C)(C)C)nnc3s2)cc1	-0.11	-1.25
35	O=C(Nc1ncc2c(n1)CC(c1ccccc1)CC2=O)c1ccco1 (stereo unspecified)	-0.5	-0.95
36	COc1ccc(-c2cc(=O)c3c(O)c(OC)c(OC)cc3o2)cc1O	1.99	-1.18
37	O=c1[nH]c(NC2CCCCC2)nnc1Cc1ccc(Cl)cc1	-1.26	-0.23
38	O=C1C(=O)N(Cc2ccccc2Cl)c2ccccc21	0.89	·
39	C=CCSc1nc2c(c(=O)[nH]1)C(c1ccc(C(=O)OC)cc1)C(C(=O)OC)=C(C)N2 (stereo unspecified)	-0.4	-1.38
40	O=C(N=S1CCC2(C1)OCCO2)c1cc(C(F)(F)F)cc(C(F)(F)F)c1 (stereo unspecified)	·	-1.78
41	CCc1nnc2n1N=C(c1ccc(F)cc1)CS2	1.53	-0.97
42	O=C(Cn1c(=O)oc2cc(S(=O)(=O)N3CCCC3)ccc21)Nc1ccc(F)cc1	0.97	·
43	CN(C)CCCNc1ncnc2c1sc1nc3c(cc12)COC(C)(C)C3	-1.1	0.1
44	CC(C)c1nc(N2CCN(C(=O)c3ccco3)CC2)c(C#N)c2c1COC(C)(C)C2	·	-0.39
45	Cc1c(C)n(Cc2ccccc2)c2ccc(C(=O)NCCN(C)C)cc12	·	-0.17
46	COc1ccc2c(c1)c(=O)oc1c(C)c(OCc3ccc(C(=O)O)o3)ccc12	1.03	0.17
47	CC1=C(c2ccc(F)cc2)S(=O)(=O)N=C1N1CCN(c2ccccc2)CC1	-0.53	·
48	COc1ccc(CN2CCN(Cc3cc(Br)ccc3O)CC2)cc1OC	3.17	0.16
49	COc1ccc([N+](=O)[O-])c(N2CCC(C(N)=O)CC2)n1	·	-0.67
50	COc1ccccc1-c1noc(-c2ccncc2)n1	-1.73	-1.03
51	COc1nc2ccccc2cc1-c1noc(C(C)C)n1	-0.01	-1.56
52	Cc1ccc(C(=O)NC2CCCCC2)cc1NC(=O)C1=CSCCO1	1.91	·
53	CCN1C=NS(=O)(=O)c2ccc(C)cc21	1.12	·
54	CCn1c(=O)c(=O)n(CC(=O)NCc2c(C)nn(C)c2C)c2cccnc21	1.71	·
55	COc1ccc(-c2nnc(SCCOc3ccccc3C)o2)cc1	1.67	1.53
56	CCN(CC)S(=O)(=O)c1ccc2c(c1)N(CC(=O)N1CCC(C)CC1)C(=O)C1CCCCN21 (stereo unspecified)	0.94	·
57	CC1=C(c2ccccc2)S(=O)(=O)NC1=NCCCc1ccccc1	-1.89	-6.04
58	Cc1cc(C)n(CC(O)CN2c3ccccc3Sc3ccccc32)n1 (stereo unspecified)	0.28	-1.23
59	CC(=O)Nc1ccc2c(c1)[n+](C)c(C)n2-c1ccccc1	1.45	-0.54
60	O=C(Nc1ccc(F)cc1)NC1CC(=O)N(C2CCCC2)C1 (stereo unspecified)	0.41	0.76
61	CCCn1cc(S(=O)(=O)c2ccc(F)cc2)c(=O)c2cc(CC)ccc21	3.03	-1.71
62	O=C(CN1C(=O)c2ccccc2S1(=O)=O)Nc1ccc(F)cc1	·	0.49
63	O=C(Nc1nccs1)c1cc2sccc2n1Cc1ccc(Cl)cc1	-0.38	-1.55
64	CC1=NS(=O)(=O)c2cc(C(=O)NCCC(C)C)ccc2N1CC(C)C	0.55	·
65	O=C(NCCN1CCOCC1)C1CCN(c2nc3ccccc3n3cccc23)CC1	0.57	·
66	Cc1cc(Nc2c(-c3ccc(Cl)cc3)c(=O)c2=O)ccc1Br	0.9	·
67	CN(CCNS(=O)(=O)c1ccc2c(c1)oc(=O)n2C)Cc1ccccc1	·	-1.43
68	CN1C(C(=O)c2ccccc2)=C(OC(=O)C(C)(C)C)c2ccccc2S1(=O)=O	·	-3.06
69	CCC1CN(C(=O)Nc2ccc(F)cc2)c2cc(Cl)ccc2O1 (stereo unspecified)	1.65	·
70	Cc1cc(N)n(-c2ccccc2Cl)n1	0.61	-1.52
71	Nc1nc(SCC(=O)Nc2cccc(F)c2)ncc1S(=O)(=O)c1ccccc1	0.24	·
72	CCn1nc(C)c(CNS(=O)(=O)c2ccc3c(c2)CCCC3)c1C	-1.3	·
73	CCOC(=O)CNC(=O)Cn1cnc2sc(C)c(S(=O)(=O)N3CC(C)CC(C)C3)c2c1=O (stereo unspecified)	1.76	-0.41
74	COc1ccc(OC)c(CN2CCc3nc(N4CCN(c5ncccn5)CC4)ncc3C2)c1	-0.64	·
75	O=C(CSC1=NCCS1)Nc1ccc(S(=O)(=O)Nc2nccs2)cc1	·	-2.66
76	c1nc(NC2CCCC2)c2[nH]cnc2n1	·	0.63
77	Nc1nc2ccccc2n1Cc1ccccc1	0.17	-0.66
78	CCOc1ccc(-c2noc(-c3ccco3)n2)cc1OCC	0.72	-1.14
79	CC1CCc2cc(F)ccc2N1C(=O)c1cc2ccccc2c(=O)o1 (stereo unspecified)	·	-0.48
80	O=C(CSc1nc2ncccc2[nH]1)c1c[nH]c2ccccc12	-9.72	-2.39

(list continues)
cpd	smiles	TAR Tat displ	CDC25B CDK2 inh
81	c1ccc(C2=Nn3cnnc3SC2)cc1	1.21	-1.16
82	Fc1ccc(N2CCN(c3c4c(nc5ncnn35)CCC4)CC2)cc1	-1.11	-1.96
83	CCCN(CCC)S(=O)(=O)c1ccc(C(=O)Nc2ccc3sc(SC)nc3c2)cc1	·	-1.04
84	CCOC(=O)CC(=O)CSc1ccc2nnc(-c3ccc(F)cc3)n2n1	·	-1.96
85	COC(=O)c1c(NC(=O)CSc2ncnc3sc(C)c(C)c23)sc2c1CCCC2	1.93	-1.08
86	Cc1ccc(Cc2nnc(-c3cc(N)ccc3F)o2)cc1	33.9*	·
87	Cc1ccc(C2c3c(-c4ccc(F)cc4)n[nH]c(=O)c3Nc3nnnn32)cc1 (stereo unspecified)	-1.09	-1.56
88	Cc1ccc(CCNS(=O)(=O)c2ccc3c(c2)C(C(C)C)C(=O)N3)cc1 (stereo unspecified)	3.35	·
89	O=C1NC2CC3CC(C2)CC1C3	·	0.39
90	O=C1C(c2ccccc2)=C(Nc2ccc(Cl)cc2)c2ccccc21	2.99	-1.94
91	C[C@@H]1C[C@H](C)CN([C@H]2CS(=O)(=O)C[C@@H]2S(=O)(=O)c2cccs2)C1	0.01	-2.17
92	CCc1ccc(N2COc3cc4c(cc3C2)OCO4)cc1	·	-2.33
93	CCCCC#Cc1nc(NC)c2ncn([C@@H]3O[C@H](CO)C(O)[C@@H]3O)c2n1 (stereo partly specified)	·	0.64
94	Cc1onc(-c2c(Cl)cccc2Cl)c1C(=O)N=S1CCC2(C1)OCCO2 (stereo unspecified)	·	-0.77
95	CC1CCN(c2ccc3nnc(CCC(=O)NC4CCCCC4)n3n2)CC1	-1.19	·
96	O=C(C1CC1)N1CCc2cc3ccccc3nc21	0.95	-0.35
97	COc1cc(-c2nc3ccc(OC(C)=O)cc3c(=O)o2)ccc1OC(C)=O	-1.17	1.78
98	CN1CCN(C(=O)C(=O)Nc2ccc3c(c2)OCO3)CC1	0.78	0.09
99	CCOC(=O)C1=C(C)NC2=C(C(=O)C(C(=O)OC)C(C)C2)C1c1ccccc1Cl (stereo unspecified)	-0.63	-1.19
100	CN1CCN(C(=O)c2ccc(CN3CC(=O)N4CSCC4C3=O)cc2)CC1 (stereo unspecified)	1.25	·
101	C=C(C)Cn1c(Br)nc2c1c(=O)[nH]c(=O)n2C	·	-1.43
102	Cn1c(=O)c2c(C(=O)O)cc(=O)n(C)c2n(C)c1=O	0.32	0.42
103	CC1C(c2ccccc2)O/C(=N\S(=O)(=O)c2ccc(Cl)cc2)N1C (stereo unspecified)	·	-0.81
104	Cc1ccc(C)c(N2CCN(C(=O)c3cn4c5c(ccc(Cl)c5c3=O)OC(C)C4)CC2)c1 (stereo unspecified)	2.52	·
105	CC(=O)c1ccc(NC(=O)Nc2sc3nc4n(c(=O)c3c2C)CCC(C)CC4)cc1 (stereo unspecified)	·	-0.52
106	C=CC[n+]1ccccc1/C=C1\Sc2ccccc2N1C	0.31	-1.29
107	COC(=O)CSC(=S)N(C)C	·	-0.49
108	COC(=O)C1=C(C)Nc2nnnn2C1c1cccs1 (stereo unspecified)	·	-0.78
109	N#CCCC1CCCCCCCCCCC1=O (stereo unspecified)	·	-1.22
110	Cc1ccsc1CCNS(=O)(=O)c1ccc2[nH]c3c(c2c1)CCCC3	-5.3	·
111	CCc1nc2c(oc3ccccc32)c(=O)[nH]1	0.95	6.73
112	CCCC1Cc2c(sc(N)c2C#N)CO1 (stereo unspecified)	-4.67	-1
